# Assay outcomes from PubChem.
# hNpr1 antagonist = blocks ANP-stimulated signaling of human Npr1 receptor; AID 1347048; 76,000 tested, 1.6% active; HEK293 hNpr1 GloSensor cGMP, ANP-stimulated luminescence; Potency, µM (highest dose often 46.3 µM), without a hit: at the highest dose activity change, negative = inhibition, most hits filed as inhibitors; P16066; active = well fitted inhibition curve with a large enough effect; inconclusive = small, poorly fitted or top-dose-only effect; inactive = no such curve, though single readings can be large or run the other way;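 note: nearly all actives have a fitted effect of over 60% in size; nearly all hits also lower the signal before the agonist is added; a reference antagonist and vehicle were the controls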
# Target sequence (P16066 whole entry, looked up): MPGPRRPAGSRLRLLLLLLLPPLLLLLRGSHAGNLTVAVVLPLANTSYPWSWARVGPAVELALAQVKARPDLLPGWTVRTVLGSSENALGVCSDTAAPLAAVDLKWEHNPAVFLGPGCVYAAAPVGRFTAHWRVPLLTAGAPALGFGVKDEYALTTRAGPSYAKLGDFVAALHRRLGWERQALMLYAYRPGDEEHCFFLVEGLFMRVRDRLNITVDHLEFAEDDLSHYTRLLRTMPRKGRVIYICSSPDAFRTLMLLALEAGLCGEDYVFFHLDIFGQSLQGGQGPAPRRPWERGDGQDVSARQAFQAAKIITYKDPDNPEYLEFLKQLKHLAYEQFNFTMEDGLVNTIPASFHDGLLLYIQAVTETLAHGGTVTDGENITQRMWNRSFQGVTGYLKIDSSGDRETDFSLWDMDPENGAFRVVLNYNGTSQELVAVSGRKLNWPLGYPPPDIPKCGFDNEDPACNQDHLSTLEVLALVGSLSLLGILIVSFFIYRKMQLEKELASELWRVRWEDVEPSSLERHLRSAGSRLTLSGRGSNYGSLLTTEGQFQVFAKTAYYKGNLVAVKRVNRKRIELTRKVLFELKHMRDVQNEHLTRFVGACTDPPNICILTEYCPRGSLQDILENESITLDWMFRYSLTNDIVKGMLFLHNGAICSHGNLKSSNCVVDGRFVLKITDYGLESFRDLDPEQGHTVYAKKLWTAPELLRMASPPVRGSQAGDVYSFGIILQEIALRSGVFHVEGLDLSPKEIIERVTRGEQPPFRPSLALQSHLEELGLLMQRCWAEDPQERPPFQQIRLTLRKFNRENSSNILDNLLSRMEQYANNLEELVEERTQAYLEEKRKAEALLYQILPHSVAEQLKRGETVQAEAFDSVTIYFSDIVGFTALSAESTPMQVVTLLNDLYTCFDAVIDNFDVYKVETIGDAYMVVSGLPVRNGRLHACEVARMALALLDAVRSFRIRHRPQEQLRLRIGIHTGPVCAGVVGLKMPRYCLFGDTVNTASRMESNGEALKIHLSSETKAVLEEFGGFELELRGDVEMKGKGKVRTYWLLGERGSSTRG
#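 Compound pre-incubated 30 min at room temperature on GloSensor-loaded HEK293 cells stably carrying hNpr1 and the pGS-40F cGMP biosensor. Stimulation uses hNppA at 0.1 nM final; luminescence is taken at baseline and 20 min post-agonist.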
# Active calls of the source: *; ? = inconclusive; [ ] = remark or other dose. % is set by controls: 0 for no effect and ±100 for the full control effect; potency is the fitted concentration of half-maximal effect.
SMILES,hNpr1 antagonist
CCc1noc(-c2ccn3c(CNC(=O)c4cccc(F)c4)nnc3c2)n1,2.1%
CCN(CC)C(=O)CCc1c(C)nn(-c2ccccc2C)c1Oc1cccc(F)c1,-15.5%
O=C(Cc1cccc(F)c1)NCCC1CCN(C(=O)Nc2ccc(F)cc2)CC1,-13.4%
CCN1CCN(CC(=O)N2CC(C)(C)[C@@](C)(O)C2)CC1,7.4%
Cc1oc(-c2ccc(F)cc2)nc1CN1CCC2(CCCO2)CCC1=O (stereo not drawn),-1.0%
O=C(N[C@H](Cc1ccncc1)C1CC(O)C1)c1ccc(CO)o1 (stereo partly drawn),3.7%
Cn1c(CO[C@H]2CN(C(=O)C(C)(C)C)C[C@H]2F)nc2ccccc21,-0.6%[70.6 µM]
COCc1nnc2n1CCC(NC(=O)Cc1c[nH]c3ccccc13)CC2 (stereo not drawn),6.0%
CCc1ccc(S(=O)(=O)N2C[C@@H](F)C[C@H]2C(=O)N2CCOCC2)cc1,3.7%
Cc1noc(C)c1CN1CCc2nc(C(=O)Nc3cccc(C(F)(F)F)c3)oc2CC1,31.6µM*
COc1ccc(-c2cn3c(n2)N(C(=O)Cc2ccccc2)CCC3)cc1,-11.8%
O=S(=O)(N[C@H]1CO[C@H]2[C@@H]1OC[C@@H]2n1nnnc1Oc1ccc(-n2ccnc2)cc1)c1cccs1,-8.0%
Cc1nn(C)c(C)c1S(=O)(=O)N1CCC2(CCC(=O)N(Cc3ccccc3)CC2)CC1,2.9%
O[C@@H]1C[C@@H](c2nc(Cc3ccc(F)cc3Cl)no2)N(Cc2cc3ccccc3o2)C1,3.7%[70.6 µM]
Cc1ccc(NC(=O)Nc2ccccc2)c(=O)n1CC(=O)NCCN1CCCCC1,6.8%
O=C(c1cccs1)N1CC[C@@H]2COCCN(Cc3cccnc3)[C@@H]2C1,1.8%
COc1cccc(OCc2nc(C(=O)N3CC4C[C@@H]5CC3C[C@H](C4)C5)co2)c1,-3.9%
COCCN1CC(C(=O)N(C)Cc2sccc2C)CCC1=O (stereo not drawn),1.8%
O=C1NCCCCCN(C(=O)CN2CCCC2=O)[C@H]2CCC[C@@H]12,0.2%
CC(C)(C)n1cnc2cccnc21,11.0%[70.6 µM]
CCOC(=O)N1CCC(N[C@@H]2CC[C@@H]2NC(=O)c2cnc3cccnn23)CC1,-0.6%
Cc1cn2nc(C(=O)Nc3ccc(F)c(C)c3)cc2c(N2CCSCC2)n1,-8.0%
CCCCc1nn(CC(=O)N2CCN(c3ccccn3)CC2)c(=O)n1CC,3.0%
CCOc1ccc(Cc2nc(C3CC(=O)N(C4CCCCC4)C3)no2)cc1 (stereo not drawn),-3.2%
O=C(c1ccnc(-c2ccccc2-c2ccccc2)c1)N1CCCC1,0.5%
c1ccc(CNc2ncc(-c3ccc(N4CCOCC4)cc3)c3c2OCC3)cc1,?
COc1ccc(Cl)cc1C(=O)NCc1nnc2ccc(-c3ccccc3)nn12,-10.2%
NC1CCC(n2cc(C(=O)NCc3cc(-c4cccnc4)no3)nn2)CC1 (stereo not drawn),-0.3%
COc1ccccc1-c1ccc(CN2C3CCC2CN(C(C)C)C3)cc1,0.0%
O=C(Cc1ccccc1Cl)N1CC(c2nnc(-c3ccncc3)o2)C2(CCOCC2)C1 (stereo not drawn),5.9%
O=C(C1CCCN(c2nc3ncccc3o2)C1)N1CCCC1 (stereo not drawn),-1.9%[70.6 µM]
NC(=O)c1cccnc1N1CCC2(CCCN(Cc3ccccc3F)C2)C1 (stereo not drawn),1.8%
COc1ccccc1-c1cn2c(n1)CO[C@@H](CNCc1ccc(F)cc1)C2,9.0%[70.6 µM]
COCCN1C(=O)CC[C@]2(C(=O)N3CCC(N4CCCCC4)CC3)CCCC[C@@H]12,2.6%
Clc1ccc(-c2cnc3n2C[C@H](CNC2CCOCC2)OC3)cc1,-8.7%[70.6 µM]
CCCCSCc1cc(C(=O)N2C[C@H](OCC)[C@@H](O)C2)oc1C,0.2%
O=C(N1CCN(Cc2ccc(Cl)c(Cl)c2)CC1)C12CNCC1CNC2 (stereo not drawn),5.8%
CC(C)Cc1cc(CNC(=O)[C@H]2CNC[C@H](C(=O)N3CCCC3)C2)no1,-0.7%
COc1ccccc1-c1nnc([C@H]2CCN(Cc3ccccn3)C2)o1,-4.5%[70.6 µM]
O[C@@H]1C[C@@H](c2nnc3n2CCN(Cc2cccc(F)c2)C3)N(Cc2ccccc2)C1,2.7%
COc1ccc(CN2CC[C@H](c3nnc(-c4ccco4)o3)C2)cc1,-3.1%[70.6 µM]
Cc1ccc(OCCC2CCN(C(=O)c3ccoc3)C2)cc1 (stereo not drawn),-5.7%
COc1cccc(C(=O)N2CCC3(CC2)CCN(CCc2ccccc2)c2ccccc2O3)c1,0.0%
CC(=O)NC1(C)CCN(Cc2ccccc2-c2cccc(C(C)=O)c2)C1 (stereo not drawn),1.1%[70.6 µM]
Cn1cnc(S(=O)(=O)N2CCCCC2c2nc(-c3ccncc3)n[nH]2)c1 (stereo not drawn),-3.7%
CCNC(=O)N1CCC(Cc2ccc(C(=O)NCCN3CCN(CC)CC3)cc2)CC1,2.1%
CC(=O)Nc1ccc([C@@H](O)[C@H]2COCC(=O)N2CCCc2ccccc2)cc1,4.5%[70.6 µM]
COc1ccc(C(=O)N2CCN(C(=O)N3CC4CC(C3)[C@H]3CCCC(=O)N3C4)CC2)cc1F (stereo partly drawn),-0.7%
CN(Cc1cccc(C(F)(F)F)c1)C(=O)C1CC1,12.3%[70.6 µM]
O=C(c1cccc(C(F)(F)F)c1)N1CCC2(CC1)CC(O)CCO2 (stereo not drawn),-1.9%
COc1ccc(C(=O)NC2CCN(c3cc(-c4ccc(F)cc4)[nH]n3)C2)c(OC)c1 (stereo not drawn),-21.2%
Cc1ccc(S(=O)(=O)N2CCC(n3cnnc3C)CC2)cc1F,-10.3%
CCn1cc(CN2CCCC(COc3ccccc3C(=O)N3CCCC3)C2)c2ccccc21 (stereo not drawn),-26.1%
Cc1cc(C)n(CC(=O)N2CCC(N3C(=O)C4(CCCCC4)C3c3ccccc3)CC2)n1 (stereo not drawn),4.9%
CSc1ccc(CN2C(=O)C3(CCOCC3)CC2c2nnnn2C(C)(C)C)cc1 (stereo not drawn),-8.6%
CCO[C@H]1CN(C(=O)c2cc(OC)nc3ccccc23)C[C@@H]1O,-0.6%
O=C(c1ccc(C(F)(F)F)cc1)N1CCC([C@@H]2CNC[C@H]2CO)CC1,10.2%
Cc1ccc(CN2CCC(C3CCNC3)CC2)nc1 (stereo not drawn),3.1%
COCCN1CCC(CN(Cc2ccncc2)C(=O)C2CC23CCCC3)CC1 (stereo not drawn),2.7%
O=C(CN1C(=O)C(c2ccccc2)=NC12CCCC2)NCc1ccc(F)cc1,-23.1%

# The final two entries of the section above are carried over, then new ones follow:
SMILES,hNpr1 antagonist
COCCN1CCC(CN(Cc2ccncc2)C(=O)C2CC23CCCC3)CC1 (stereo not drawn),2.7%
O=C(CN1C(=O)C(c2ccccc2)=NC12CCCC2)NCc1ccc(F)cc1,-23.1%
Cn1c2c(c3cc(F)ccc31)CN(C(=O)Nc1cccc(Cl)c1)CC2,?
CN(Cc1cccc(C(F)(F)F)c1)C(=O)c1ccccc1Cl,-3.9%[70.6 µM]
COCc1ccc(C(=O)N2CC[C@@H](NC(=O)c3cnccn3)[C@H](O)C2)o1,-13.4%
Cc1nn(C)c(C)c1S(=O)(=O)N1CCC2(CC1)c1[nH]c3ccccc3c1CCN2C,2.6%
CC(C)c1ccc(N2C(=O)N[C@@H]3CCN(C(=O)COc4ccccc4)[C@@H]3C2=O)cc1,2.8%[70.6 µM]
COCC(=O)N1CCc2n[nH]c(=O)n2CC1,-3.5%
CC(C)c1noc([C@@H]2C[C@H]3C(=O)NCCCCCCN(C(=O)c4ccsc4)[C@H]3C2)n1,-17.3%
O=C1NC(C(=O)Nc2ccc(F)c(F)c2)Cn2cccc21 (stereo not drawn),-2.6%
CN1CC(=O)N(c2cccnc2)Cc2c(NC3CCC3)ncnc21,-0.1%[70.6 µM]
O=C1CO[C@H]2CCN(Cc3ccccn3)CC[C@@H]2N1c1ccccc1,-1.9%[70.6 µM]
CCn1c2c(c(=O)n1-c1ccccc1)CCN(CCCc1ccccc1)C2,-16.5%[70.6 µM]
CNC(=O)CCn1ncc2cc(OC3CCc4cccc(-c5cccc(OC)c5)c43)ccc21 (stereo not drawn),?
COc1ccc(Cc2nc3nccc(-c4cccc(OC)c4)n3n2)cc1,2.0%
CCN1C(=O)C2CC3(CCN(C4CCN(C)CC4)CC3)CN2C1=O (stereo not drawn),-5.2%
COc1ccc(CN2C(=O)[C@@H]3C[C@@H](O)CN3C3(CN(Cc4cccs4)C3)C2=O)cc1,-2.2%[70.6 µM]
CN(Cc1ccccc1)Cc1nc(C2CCOC2)no1 (stereo not drawn),3.0%
CCC(=O)N1C(C(=O)NCC2CCCO2)COC12CCC(C)CC2 (stereo not drawn),0.3%
CN(CCc1ccccc1)c1cnn(CCCn2cnnn2)c(=O)c1,6.9%
CN1CCN(C)c2cnc(-c3cnn(Cc4ccccc4)c3)cc2C1,-2.8%[70.6 µM]
CC(C)CC(=O)N1CCC(N2C(=O)C3(CCCC3)C2c2ccccc2)CC1 (stereo not drawn),-3.2%
COCc1noc([C@@H]2CN(C(=O)c3cc4ccccc4[nH]3)C[C@H]2C(N)=O)n1,1.0%
CCn1cc(S(=O)(=O)NCC2Cn3cccc3C(=O)N2CCOC)cn1 (stereo not drawn),-2.1%
CN(C(=O)CN1C(=O)NC2(CCCCC2)C1=O)C1CCCCC1,5.2%
COCC(=O)Nc1ccc([C@@H](O)[C@H]2COCC(=O)N2Cc2ccc(C(F)(F)F)cc2)cc1,7.8%
O=C(c1cccs1)N1CCCN(c2cc(-c3ccc(F)cc3)[nH]n2)CC1,-9.8%
CC1(c2cccnc2)N(Cc2ccccc2)C(=O)OC12CCN(C(=O)c1cccc(Cl)c1)CC2 (stereo not drawn),-0.1%
COc1cncc(NC(=O)C2=NO[C@@H]3CN(Cc4ccccc4)C[C@H]23)c1,2.0%[70.6 µM]
C[C@H]1CCCN1C(=O)c1nnc(COc2ccc(F)c(F)c2)n1-c1cccnc1,-4.6%[70.6 µM]
Cc1cc(CNC(=O)c2cc(-c3ccccc3F)cc3c2OCCN3C)no1,-2.4%[70.6 µM]
C=CCNC(=O)N[C@H]1CO[C@H]2[C@@H]1OC[C@@H]2Nc1nccc(-c2cccc(F)c2)n1,5.6%[70.6 µM]
C[C@@H]1CN(C(=O)c2cc(S(N)(=O)=O)ccc2F)CC[C@]1(C)O,5.6%
COc1ccc(-c2ccccc2NC(=O)C2CCCN(CC=C(C)C)C2)cc1 (stereo not drawn),8.9%
O=C(O)C1Cc2nc[nH]c2CN1C(=O)CC1CCS(=O)(=O)CC1 (stereo not drawn),6.0%
Cn1cc(CN2CCOC[C@H]2c2ncc(-c3ccc(F)cc3F)[nH]2)c2ccccc21,-27.0%[70.6 µM]
C[C@@H](NC(=O)C1CCOCC1)c1onc(-c2ccc(Cl)cc2)c1C(=O)O,4.8%[70.6 µM]
COc1cc(OC)cc(C(=O)NC2CCCN(c3cc(-c4ccc(F)cc4)[nH]n3)C2)c1 (stereo not drawn),-12.0%
Cc1ccc(-c2noc([C@@H]3Cc4nc[nH]c4CN3C(=O)NC3CCCCC3)n2)cc1,-22.5%[70.6 µM]
N#Cc1cccc(CN2C[C@H](O)C[C@H]2c2nc(-c3ccccn3)no2)c1,2.8%[70.6 µM]
CCC1Oc2ccc(NC(=O)c3ccccc3)cc2CN(Cc2ccc(OC)cc2)C1=O (stereo not drawn),-15.7%
Cc1ccn2c(C(=O)N3CC[C@@](C)(O)[C@@H](O)C3)nnc2n1,0.7%

# Among those listed so far, these have a tert-butyl group:
SMILES,hNpr1 antagonist
Cn1c(CO[C@H]2CN(C(=O)C(C)(C)C)C[C@H]2F)nc2ccccc21,-0.6%[70.6 µM]
CC(C)(C)n1cnc2cccnc21,11.0%[70.6 µM]
CSc1ccc(CN2C(=O)C3(CCOCC3)CC2c2nnnn2C(C)(C)C)cc1 (stereo not drawn),-8.6%

# Next compounds.
SMILES,hNpr1 antagonist
Cc1cccc(OCC2(CNCc3ccccn3)C[C@@H](O)[C@@H](O)C2)n1 (stereo partly drawn),-9.7%
O=C(NCCn1cccn1)C1CCC(=O)N(CCCN2CCOCC2)C1 (stereo not drawn),-1.5%
CC(C)C(=O)N1CCC(CC(=O)NCc2ccccc2)C1 (stereo not drawn),-1.0%
Cn1c(C(=O)N2CCn3nc(Cc4ccccc4)cc3C2)cc2ccccc21,-21.7%
CO[C@H]1[C@H](NC(=O)c2c(F)cccc2Cl)c2ccccc2C12CCNCC2,0.3%
O=C1NCCCCCCN(Cc2cccc(F)c2)[C@H]2C[C@H](C(=O)N3CCc4ccccc4C3)C[C@@H]12,15.8µM*
COc1cccc(C(=O)N2CC(F)(F)C[C@H]2c2nc(C)no2)c1,2.2%
Cc1cc(C)cc(C(=O)NCc2nnc3c(-c4nc(C(C)C)no4)cccn23)c1,0.8%
CCN(CCOC)Cc1cn(-c2ccc(F)cc2F)nc1-c1ccccc1C,-0.6%
CNC(=O)C1CCCN(c2nc3ncccc3o2)C1 (stereo not drawn),15.7%[70.6 µM]
CCn1ccnc1CN1CC[C@@H](c2ccc3ccccc3c2)[C@H](O)C1,-5.2%
CC(C)N1CCOC(CC(=O)NCc2cc(N3CCOCC3)ncn2)C1 (stereo not drawn),7.0%
O=C(NC1CCCc2c1[nH]c1ccccc21)c1n[nH]c2c1CCC2 (stereo not drawn),-12.4%
Cn1ccc(C(=O)N2C[C@@H](COc3ccccc3)[C@H](C(N)=O)C2)n1,0.5%

# Among those listed so far, these contain a COOH group:
SMILES,hNpr1 antagonist
O=C(O)C1Cc2nc[nH]c2CN1C(=O)CC1CCS(=O)(=O)CC1 (stereo not drawn),6.0%
C[C@@H](NC(=O)C1CCOCC1)c1onc(-c2ccc(Cl)cc2)c1C(=O)O,4.8%[70.6 µM]

# An excerpt. The share of hits here may be higher or lower than overall.
